Tg IFNy HTS – blocks Toxoplasma gondii growth in the presence of IFN-gamma; Toxoplasma gondii growth in IFN-gamma-treated host cells; hits give low values; reference of the scale not given here; activity change, negative = inhibition, %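 (about 20 µM by stock and volumes)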; 3.8% of 69,000 active; AID 1259416;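 active = below -70%; inconclusive = fit judged invalid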;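 note: host cells are HeLa cells infected with Toxoplasma gondii; parasite growth read as luciferase light; one replicate is shown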
* marks the source's active call; other numbers are inactive results; ? = inconclusive; & = joins results of further samples. This is a subset; count on the stated rates, not on these rows.

SMILES | Tg IFNy HTS
CS(=O)(=O)NC1COCCC12CCN(C(=O)c1cccnc1)CC2 (stereo unspecified) | -5.8
CCS(=O)(=O)N1CC[C@@H]2O[C@@H](c3nnc(C)o3)CC[C@@H]21 | -12.2
CCOC(=O)N1CCC2(CC1)OC(=O)C(C)=C2C(=O)NC1CCCCC1 | 69.7
Cc1nc(OCC(=O)Nc2ccccc2Br)c2ccccc2n1 | -4.0
O=c1[nH]n(CCO)c(=O)c2cc(Cl)c(Cl)cc12 | -49.1
CN1CC(=O)N2CCN(Cc3cccn3-c3ncccn3)CC2C1=O (stereo unspecified) | -3.5
COc1c(C)cc(-c2csc(C(N)=O)c2)cc1C | -71.6*
COCCC(=O)N1C2CCC(C2)[C@@H]1COc1ccc(F)cc1 (stereo partly specified) | 33.9
CC1Cc2ccccc2N1C(=O)CCn1c(=O)sc2ccccc21 (stereo unspecified) | 18.6
c1ccc(-c2cc(-c3ccccc3)on2)cc1 | 148.5
Cc1cc(C)n(-c2nc(C(=O)Nc3ccc4c(c3)CCN4S(C)(=O)=O)cs2)n1 | 19.3
COc1ccc(-c2noc(-c3ccc(N4CCC(N5CCCCC5)CC4)nc3)n2)cc1 | -28.5
COc1cccc(Cl)c1-c1cc(C)cnc1N | 0.7
CC(NCC(=O)Nc1cnccn1)c1ccc(-n2cncn2)cc1 (stereo unspecified) | 1.0
CN1C(=O)CC(c2ccccc2)C12CCN(Cc1cccs1)CC2 (stereo unspecified) | 1.2
CN1CCN(c2c(F)cc3c(=O)c(C(=O)O)cn4c3c2OCN4C)CC1 | 21.1
O=C(C[C@H]1C=C[C@@H](NC(=O)Cc2ccccn2)[C@@H](CO)O1)NCCc1ccncc1 | 6.7
COc1ccc(CC(=O)n2[nH]c(=O)ccc2=O)cc1OC | -0.2
Cn1cc(N2CC3(CCN(c4ncc(F)cn4)CC3)OCC2=O)cn1 | 0.6
Cn1cc(CCC(=O)N2CCC(c3n[nH]c(=O)n3-c3ccccc3)CC2)cn1 | 14.8
CCOC(=O)C1CN(Cc2nccs2)Cc2ncn(CC)c21 (stereo unspecified) | 8.3
CC(C)N1CCOC2(CCN(C(=O)c3ccsc3)CC2)c2ccccc21 | -49.0
c1ccc(Nc2ccc3nc(C4CCN(Cc5ccco5)CC4)nn3c2)cc1 | -0.4
CCOCC1CN(C(=O)Cc2ccsc2)Cc2ccnn2C1 (stereo unspecified) | 7.6
CCOC(=O)C(CCC#N)(CCC#N)C(C)=O | 44.8
CC(C)Cc1cc(C(=O)N2CC[C@@H](c3ccc(F)cc3)[C@H](O)C2)nc(N)n1 | -34.3
CCC1=NOC(CNC(=O)C2(Oc3ccc(Cl)cc3)CCNCC2)C1 (stereo unspecified) | -8.7
Cc1ccc(C)n1NC(=O)c1ccccc1O | -94.8*
CCc1ccccc1Nc1ncnc2c1cnn2-c1ccccc1 | 25.6
COc1ccccc1NC(=O)N1C[C@H](O)COC[C@H]2O[C@@H](CC(=O)N3CCC(Cc4ccccc4)CC3)CC[C@@H]21 | 17.5

As entered above.
`c1ccc(Nc2ccc3nc(C4CCN(Cc5ccco5)CC4)nn3c2)cc1` @ Tg IFNy HTS: -0.4
`CCOC(=O)C1CN(Cc2nccs2)Cc2ncn(CC)c21` (stereo unspecified) @ Tg IFNy HTS: 8.3
`CCOCC1CN(C(=O)Cc2ccsc2)Cc2ccnn2C1` (stereo unspecified) @ Tg IFNy HTS: 7.6

The main list resumes, repeating the 2 entries before the break.
SMILES | Tg IFNy HTS
CCc1ccccc1Nc1ncnc2c1cnn2-c1ccccc1 | 25.6
COc1ccccc1NC(=O)N1C[C@H](O)COC[C@H]2O[C@@H](CC(=O)N3CCC(Cc4ccccc4)CC3)CC[C@@H]21 | 17.5
COc1cccc(NC2COC3(CCN(Cc4ccc(F)cc4)CC3)C2)c1 (stereo unspecified) | -43.8
Fc1cccc(Nc2ccc3c(C4CCCN4Cc4cccnc4)nnn3c2)c1 (stereo unspecified) | -48.3
O=C(Cc1csc2ccccc12)Nc1ccc(F)cc1 | ?
Brc1c(Br)c(Br)c2n[nH]nc2c1Br | 15.2&3.5
C[C@H]1CN([C@@H](C)CO)C(=O)c2cc(NS(=O)(=O)c3cn(C)cn3)ccc2O[C@H]1CN(C)C(=O)Nc1cccc2ccccc12 | 7.1
Cc1nc(-c2ccc(F)cc2)sc1-c1ccc(SCc2ccccc2F)nn1 | 1.6
Cc1ccccc1-c1ccc([C@H]2[C@@H](CO)N3C(=O)CN(C(=O)c4ccncc4)C[C@H]23)cc1 | -23.0
CCNc1ncc(CN2CCCN(C(=O)c3ccco3)CC2)cn1 | 16.0
Cc1cccc(S(=O)(=O)N2CCCn3cnc(CN4CCCC4=O)c3C2)c1 | 11.1
O=C(CN1CCCC1c1ccccn1)N1CCOc2ccccc21 (stereo unspecified) | 24.7
CN(C)C(=O)COCC1CN(Cc2nccs2)Cc2cncn2C1 (stereo unspecified) | -1.6
C[C@@H]1CN([C@@H](C)CO)C(=O)CCCn2nncc2CO[C@@H]1CN(C)C(=O)c1ccc2ccn(C)c2c1 | -47.6
CC(C)NC(=O)c1cc2c(nc1NCC1CC1)CCN(Cc1cnn(C)c1)CC2 | 2.2
CC1CCC2(CC1)Nc1ccccc1CO2 (stereo unspecified) | -21.1
CCOC(=O)c1nc(N(CC)c2ccc(OC)cc2)c2ccccc2n1 | -54.8
O=c1oc(Cl)c(Cl)c2ccccc12 | 10.5
CO[C@H]1CN(C)C(=O)c2ccc(NC(C)=O)cc2OC[C@@H](C)N(Cc2cccc(F)c2)C[C@@H]1C | 193.6
Cc1oc(C(C)(C)C)cc1C(=O)NCCSCc1c(F)cccc1Cl | -9.6
Cc1ccc(-c2cc3c(=O)n(Cc4nc(-c5ccc(OC(C)C)cc5)oc4C)ccn3n2)cc1 | -73.0
CCn1c(CC2CCN(C(=O)CCN3CCCCO3)CC2)nn(C)c1=O | 4.9
CCCc1cncnc1N1CCN(C2CCN(Cc3ccco3)CC2)CC1 | -40.1
COc1cccc(C)c1NC(=O)c1cccc(CN2CCC[C@@H]2C(N)=O)c1 | -0.1
Cc1ccc(CSC2=Nc3ccccc3C3=NC(CCC(=O)NCCc4ccccc4)C(=O)N23)cc1 (stereo unspecified) | 27.6
COc1ccc(CNC(=O)Cn2c(=O)cc(-c3nc(C4CC4)no3)c3ccccc32)cc1 | 13.6
Cc1noc2ccc(CN3CCC(c4cc(CC(=O)O)[nH]n4)CC3)cc12 | 7.4
CO[C@H]1CC[C@@H]2CCOc3ccc(C#N)cc3C(=O)N(C)[C@H](C)C(=O)N(C)C[C@@H]1O2 | 0.0
CN(C)CC(=O)NCCC1CCCCN1 (stereo unspecified) | -4.9
CN(Cc1nccs1)Cc1cn(-c2ccccc2)nc1-c1ccc2c(c1)OCO2 | -45.1
Cc1cccc(CN(Cc2ccccc2)Cc2ncc[nH]2)n1 | 23.6
O=C(CC1CC1)NCc1cc(=O)n2c(n1)CNCCC2 | 73.3

Part of the list above, tab-delimited:
molecule	Tg IFNy HTS
COc1ccc(CNC(=O)Cn2c(=O)cc(-c3nc(C4CC4)no3)c3ccccc32)cc1	13.6
Cc1noc2ccc(CN3CCC(c4cc(CC(=O)O)[nH]n4)CC3)cc12	7.4
CO[C@H]1CC[C@@H]2CCOc3ccc(C#N)cc3C(=O)N(C)[C@H](C)C(=O)N(C)C[C@@H]1O2	0.0
CN(C)CC(=O)NCCC1CCCCN1 (stereo unspecified)	-4.9
CN(Cc1nccs1)Cc1cn(-c2ccccc2)nc1-c1ccc2c(c1)OCO2	-45.1
Cc1cccc(CN(Cc2ccccc2)Cc2ncc[nH]2)n1	23.6
O=C(CC1CC1)NCc1cc(=O)n2c(n1)CNCCC2	73.3

The results go on.
SMILES | Tg IFNy HTS
O=C(c1cc2c(c3ccccc3n2CC2CC2)n1-c1ncccn1)N1CCCC(O)C1 (stereo unspecified) | -9.7
c1ccc(-c2ncn(CCCc3cccnc3)c2C2CCOC2)cc1 (stereo unspecified) | -47.6
O=C1CO[C@H]2CN(S(=O)(=O)c3ccccc3)C[C@@H]2N1 | 12.4
COc1ccccc1NC(=O)N1C[C@H](O)COC[C@H]2O[C@@H](CC(=O)NCCc3ccncc3)CC[C@@H]21 | 23.6
Cc1nc(CN2CCCC2c2nc3ccc(F)cc3[nH]2)cs1 (stereo unspecified) | 0.2
Cc1noc(C)c1C(=O)N1CCC2(CC1)COCCN2CCN(C)C | -16.6
COCCN1C(=O)CCc2cc(NS(=O)(=O)c3ccc(Cl)cc3)ccc21 | -5.7
COC(=O)c1c(NC(=O)c2ccc(C)cc2)sc(Cc2ccccc2)c1C | ?
O=C(Cn1ccc(=O)[nH]c1=O)NC1CC2(CCOCC2)Oc2ccccc21 (stereo unspecified) | -37.2
CC(=O)N1CCN(c2ccc(NC(=O)/C=C/c3ccccc3)cc2)CC1 | 14.3
CCc1nc(OCC(=O)Nc2cc(F)ccc2F)c2ccccc2n1 | 7.7
C[C@H]1CN([C@@H](C)CO)C(=O)c2cc(N(C)C)ccc2O[C@@H]1CN(C)CC1CCCCC1 | 4.0
CC(C)NC(=O)Nc1ccc2c(c1)C(=O)N([C@@H](C)CO)C[C@@H](C)[C@@H](CN(C)C(=O)C1CCCCC1)OCCCC[C@H](C)O2 | 307.3
CC(C)(C)S(=O)(=O)Cc1nc(-c2ccc(C(F)(F)F)cc2)cs1 | 53.4
O=C(O)CC/C=C/CC1COC(c2ccccc2Cl)OC1c1ccccc1O (stereo unspecified) | 16.2
CN(C)C(=O)N1CCc2c(nnn2C)C1COCC1CC1 (stereo unspecified) | -6.9
Cc1noc(C)c1CC(=O)N1CCCC1c1ccc(C(=O)N2CCN(C)CC2)cn1 (stereo unspecified) | -14.1
Cc1c(Cl)cccc1NC(=O)C(=O)NCCc1csc(-c2ccc(F)cc2)n1 | -50.7
COc1ccc(N(Cc2nc(-c3ccc(C)cc3)oc2C)S(=O)(=O)c2cccs2)cc1 | 20.4
CO[C@H]1CC[C@@H]2CCOc3c(C#N)cccc3C(=O)N(C)C[C@H](c3ccccc3)CC(=O)N(C)C[C@@H]1O2 | 35.2
Cc1ccc(OC(=O)c2c(-c3ccccc3)nnc3ccccc23)cc1 | -105.6*
COc1cc(SC)ccc1-c1nc2ccncc2[nH]1 | 6.0
CCOC(=O)CNC(=O)N1CCC2(CC1)Nc1cc(OC)ccc1-n1cccc12 | 155.1
Cn1c(-c2nccn2-c2ccc(Oc3nn[nH]n3)cc2)nc2ccccc21 | -51.9
CCCCCCCCCCCCCCOc1ccc(C(=O)O)o1 | -57.5
COc1ccc(C)cc1CN1CCC(c2nc(-c3cccnc3)cc(=O)[nH]2)CC1 | 6.6
Cc1cccnc1N1CC2(CCN(C(=O)c3cccnc3)C2)C1 | -3.0
Cc1ccc(C(=O)N2CCCCC2CCn2ccnc2)cc1NC(=O)C1CC1 (stereo unspecified) | -0.8
O=c1n(CN2CCOCC2)nc2c3ccccc3ncn12 | -19.8
CC1=NOC(C(=O)Nc2cc(C)ccc2NC(=O)C2CCCCC2)C1 (stereo unspecified) | 44.1
Cn1ccnc1CN1CCC2(CC1)CN(Cc1cccnc1)C(=O)CO2 | 19.4
O=C(c1ccn[nH]1)N1CCOC2(CCCN(c3cccc(F)c3)C2)C1 (stereo unspecified) | 4.6
Cc1n[nH]c(C)c1CCc1cc(=O)[nH]c(N2CCCC(C)C2)n1 (stereo unspecified) | -68.0
O=C(Cc1cccnc1)c1cc2ccc(-c3cccc(Cl)c3)cn2c1-c1cocn1 | 88.5
Cn1c(CN(Cc2ccncc2)Cc2ccc(F)cc2)nc2ccccc21 | -40.7
CN1C(=O)c2cc(NC(=O)Cc3cccs3)ccc2OC[C@H]2O[C@H](CC(=O)NCCCN3CCOCC3)CC[C@H]21 | 7.7
CCOc1cc2c(cc1-c1nccn1CCc1cnc[nH]1)CCC2 | -1.2
COC1COC2(CCN(C(=O)Cc3ccccn3)CC2)C1 (stereo unspecified) | -98.1*
O=C(NC1CCCC1)N[C@@H]1C=C[C@@H](CC(=O)N2CCOCC2)O[C@H]1CO | 12.7
CN1CCO[C@H]2CN(C(=O)c3ccc4[nH]ccc4c3)CC[C@@H]2C1 | -23.4
CC(=O)NC[C@@H]1[C@@H](c2ccc(C3=CCCC3)cc2)[C@H](CO)N1Cc1cccnc1 | -9.9
CCc1cc(N2CCN3CCN(C)CC3C2)nc(N2CCOCC2)n1 (stereo unspecified) | 9.2
CCCNC(=O)N1[C@H](CO)[C@@H](c2ccccc2C2=CCCCC2)[C@@H]1C#N | -37.8
CC(Cn1cncn1)C(=O)NCc1cccnc1-n1cnc2ccccc21 (stereo unspecified) | -5.1
CCCc1ccc(CN2CCN3C(=O)CN(C)C(=O)C3C2)o1 (stereo unspecified) | 1.1
COC(=O)Nc1ccc2[nH]cc(CCNC(C)=O)c2c1 | 6.2&-2.3
Cc1ccc(C2(O)CCN(Cc3cccc(-n4cccn4)c3)CC2)nc1 | -1.4
CCc1nc(-c2noc3ccc(C(=O)N(C)CCOC)cc23)co1 | 112.7
Cc1nc(N)nc2c1CCCC2 | -1.1
Cc1ccc(Cl)cc1N1CCN(C(=O)CC2Nc3c4ccccc4nc(=S)n3C2=O)CC1 (stereo unspecified) | -28.2
CO[C@@H]1CCN(C(=O)C2CCOCC2)[C@H]2CN(Cc3ccncc3)C[C@@H]12 | 0.1
CCS(=O)(=O)N1Cc2c(Cn3ccnc3)nn(C)c2C1 | -23.5
O=C(NC[C@@H]1OC[C@@H]2CCN(Cc3ccccc3)C[C@H]21)C1CC1 | -2.9
CCOC(=O)[C@@]12CCCN(S(=O)(=O)C3CC3)C[C@@H]1CN(C(C)C)C2 | -4.8
C=CCC(C)(C)CN1CCC(C(=O)N2CCCC2)CC1 | -49.0
CCCCOc1ccc(-c2cc3c(=O)n(Cc4nc(-c5ccccc5C)oc4C)ccn3n2)cc1 | 69.5
Cc1cc(C)n(C2CCN(Cc3c(CO)cnc(C)c3O)C2)n1 (stereo unspecified) | -9.2
O=C(Cn1ccc2ccc(F)cc21)Nc1cccc(-n2cnnc2)c1 | 50.9
N#CCC(=O)NN | 8.9
O=C(Sc1ccc(Cl)cc1Cl)c1csc(-c2ccc3nonc3c2)n1 | -1.8
COc1cccc(C(=O)N2CCN(Cc3cnn(C)c3C3CC3)CC2)c1 | -3.1
CC(C)CNc1nc2c(cc1C(=O)N1CCCC1)CCN(CC1CC1)CC2 | 0.9
